HPGD inh: inhibitors of human 15-hydroxyprostaglandin dehydrogenase (HPGD). purified HPGD, NADH fluorescence kinetic, PGE2 substrate. AID 894. Potency, µM, inactives show at the highest dose activity change, negative = inhibition, actives largely listed as inhibitors. hit rate 4.3% among 150,000; active = well fitted inhibition curve with a large enough effect (not every such curve was filed as active); inconclusive = small, poorly fitted or top-dose-only effect, or another doubt; inactive = no such curve, though single readings can be large or run the other way;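 note: top concentration of the series not given in the record; plate controls included wells without enzyme; inactives centre near -10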
Target sequence (P15428 whole entry, looked up): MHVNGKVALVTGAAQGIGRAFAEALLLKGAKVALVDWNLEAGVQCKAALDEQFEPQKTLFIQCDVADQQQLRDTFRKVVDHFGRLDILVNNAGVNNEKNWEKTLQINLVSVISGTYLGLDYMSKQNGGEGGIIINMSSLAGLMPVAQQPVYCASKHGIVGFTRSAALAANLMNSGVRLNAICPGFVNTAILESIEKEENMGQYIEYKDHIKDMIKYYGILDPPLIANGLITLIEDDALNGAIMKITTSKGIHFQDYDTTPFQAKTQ
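20 nM HPGD preincubated 15 min at room temperature with compound in 50 mM Tris-HCl pH 8, 0.01% Tween 20. Started with 1 mM NAD+ and 30 uM prostaglandin E2; NADH fluorescence (360/450 nm) read 5 times over 30-s intervals, last minus first.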
Numbers without * were called inactive; ? = inconclusive. % is set by controls: 0 for no effect and ±100 for the full control effect; potency is the fitted concentration of half-maximal effect. An excerpt; count on the stated rates, not on these rows.

HPGD inh	SMILES
-18%	O=C(O)CCc1ccc(-c2ccccc2)n1Cc1ccco1
?	N#Cc1cc2cc3c(cc2nc1N1CCOCC1)OCO3
-4%	Cc1ccc2c(Cl)cc(Cl)c(OCC(=O)Nc3cccc(S(N)(=O)=O)c3)c2n1
-35%	N#C/C(=C\c1cccs1)C(=O)NCC1CCCO1 (stereo not drawn)
-10%	CC(=O)N1CCC(C(=O)Nc2ccccc2)(N(Cc2ccccc2)C(=O)c2cccnc2)CC1
-20%	O=C(CCc1ccccc1)N1CCN(c2ccccn2)CC1
-13%	CCOC(=O)Cc1nnc(NC(=O)COc2ccc(OC)cc2)s1
-14%	O=C(NC(NCc1cccnc1)C(Cl)(Cl)Cl)c1cccc2ccccc12 (stereo not drawn)
-12%	Cc1nc2ccccc2n1CCC(=O)Nc1cccc(F)c1
16µM*	O=C(NCc1ccco1)c1cc2c(s1)CCCCC2
-6%	O=C(CSc1nnc(-c2ccco2)n1Cc1ccco1)Nc1ccccc1
-17%	O=C(Nc1nccs1)c1cccc(NC(=O)c2ccco2)c1
-14%	C=C(C)CSCc1nc2ccccc2[nH]1
0%	COc1ccccc1-n1cnnc1SCC(=O)Nc1cc(C(C)(C)C)nn1-c1ccccc1
-22%	O=C1Nc2ccc(S(=O)(=O)N3CCCC3)c3cccc1c23
-13%	CCSc1nnc(NC(=O)CSc2nnc(-c3c[nH]c4ccccc34)n2C)s1
-13%	C/C(=N\OCc1ccccc1)c1c(O)cc(C(C)C)n(-c2ccccc2)c1=O
?	COc1ccc(-c2nc(CSCC(=O)N3CCC(C(N)=O)CC3)c(C)o2)cc1OC
-17%	CCCC(c1nnnn1CS(=O)(=O)c1ccc(C)cc1)N1CCN(c2ccc(F)cc2)CC1 (stereo not drawn)
-22%	Cc1ncc(CCl)c2c1OC(C)(C)OC2
-20%	O=C(O)/C=C\C(=O)Nc1ccccn1
?	O=C(c1cccc(F)c1)N1CCC2(CC1)CN(c1cccc(-c3ccccc3)c1)C2
-3%	O=C1C2C3c4ccccc4C(c4ccccc43)C2C(=O)N1/N=C/c1cccc(O)c1 (stereo not drawn)
-5%	COC(=O)c1c(NC(=O)Cn2cc([N+](=O)[O-])cn2)sc2c1CCC2
-11%	N#Cc1c(-c2ccccc2)[nH]c(=S)[nH]c1=O
-14%	Cc1ccc(C)c(SCc2noc(C(=O)NC(C)C)c2C(=O)O)c1
-14%	CC(C)Oc1ccc(N2C(=O)c3ccccc3C2=O)cc1
-10%	CCOC(=O)C(=Nc1ccc(Cl)cc1)NO
-10%	O=S(=O)(N/N=C1/CCCc2ccccc21)c1ccc(Br)cc1
-9%	CCN(CC)CCCOc1ccc(C)cc1Br

(more compounds)
HPGD inh	SMILES
-11%	Cc1cccc(C)c1-n1c(C)cc(/C=C2\C(=O)NN(c3ccccc3)C2=O)c1C
6%	N#CCSCC(=O)Nc1ccc(F)cc1
-16%	COCCNC(=O)c1ccc(CN2CCOCC2)cc1
-24%	N#C/C(=C/c1ccc(CNC(=O)C(=O)Nc2cc(Cl)cc(Cl)c2)o1)C(=O)NCc1cccnc1
-8%	COc1cc(CO)ccc1Oc1nnnn1-c1ccc(C(N)=O)cc1
-9%	COc1cc(C(=O)O/N=C2/C=C(C)C(=O)C=C2C)cc(OC)c1OC
1%	Cc1cc(NC(=O)c2cnn3cccnc23)nn1CC(=O)Nc1cccnc1
-19%	Cc1cc(C)cc(NC(=O)c2oc3ccccc3c2COc2ccccc2)c1
-2%	COc1ccc(NC(=O)c2c(C)cc(=O)oc2C)c(OC)c1
-5%	CCCN(CCO)Cc1ccc(Br)cc1
-11%	CCOC(=O)CN1C(=O)C(CC)Oc2ccccc21 (stereo not drawn)
-4%	Cc1ccccc1C1CC(=O)Oc2ccc(C(C)(C)C)cc21 (stereo not drawn)
-16%	CC(=O)c1ccc(NC(=O)COC(=O)CCN2C(=O)c3cccc([N+](=O)[O-])c3C2=O)cc1
-5%	C=CCNc1cnn(-c2ccc(C)cc2)c(=O)c1Cl
-29%	COc1ccc(Cc2nnc(SCC(=O)NC3CCCC3)o2)cc1
28µM*	COc1cc(-c2ccccc2)nc2ccccc12
-5%	Cc1nn(-c2nc3ccccc3s2)c(N)c1Sc1ccc(F)cc1
-20%	Cc1c(/C=N/NC(=O)c2cc(=O)[nH]c(=O)[nH]2)c2ccccn2c1C(=O)c1ccccc1
-17%	O=C(NNC(=O)C1CC2CCC1C2)c1ccccc1 (stereo not drawn)
-17%	Nc1[nH]nc2nc(N3CCCC3)nc(-c3ccccc3)c12
-11%	COc1ccc(C(=O)N2CCC3(CCCN(Cc4ccc(C#N)cc4)C3)CC2)cc1
?	O=C(CCN1C(=O)C2C3C=CC(C3)C2C1=O)N1CCN(c2ccccn2)CC1 (stereo not drawn)
-4%	N#C/C(=C\C1=C(N2CCOCC2)C(=C/c2cccc([N+](=O)[O-])c2)/CC1)C(=O)Nc1ccccc1F
-8%	O=C(c1ccco1)N1CCN(CC(=O)N2CCCc3c2c(=O)oc2ccc(O)cc32)CC1
-5%	COc1ccccc1-c1ccc(=O)n(CC(=O)NCc2ccc3c(c2)OCO3)n1
-14%	Cc1nn(-c2ccccc2)c2[nH]c(=O)c(CNc3ccc4c(c3)OCCO4)cc12
-21%	COc1ccccc1NC(=S)N/N=C/c1ccc(O)cc1
-5%	CC(C)Oc1ccc(C(CC(=O)O)NC(=O)C2CCCCC2)cc1 (stereo not drawn)
-29%	COc1ccc(N(C(C)C(=O)N/N=C/c2ccc(OC(C)C)cc2)S(C)(=O)=O)cc1 (stereo not drawn)
-7%	CC(Oc1ccc(Cl)cc1Cl)C(=O)NCCN1CCOCC1 (stereo not drawn)

Copied from the list.
For HPGD inh, COc1ccc(N(C(C)C(=O)N/N=C/c2ccc(OC(C)C)cc2)S(C)(=O)=O)cc1 (stereo not drawn) is listed with -29%
For HPGD inh, Cc1ccccc1C1CC(=O)Oc2ccc(C(C)(C)C)cc21 (stereo not drawn) is listed with -4%
For HPGD inh, COc1cc(C(=O)O/N=C2/C=C(C)C(=O)C=C2C)cc(OC)c1OC is listed with -9%
For HPGD inh, Cc1nc2ccccc2n1CCC(=O)Nc1cccc(F)c1 is listed with -12%
For HPGD inh, N#C/C(=C/c1ccc(CNC(=O)C(=O)Nc2cc(Cl)cc(Cl)c2)o1)C(=O)NCc1cccnc1 is listed with -24%
For HPGD inh, CCOC(=O)C(=Nc1ccc(Cl)cc1)NO is listed with -10%

Further structures:
HPGD inh	SMILES
-5%	CC12C(=O)N(c3cccc(OC(=O)c4ccco4)c3)C(=O)C1C1c3ccccc3C2c2ccccc21 (stereo not drawn)
-8%	CC1=NN(C(=O)c2ccc(Cn3nc(C)c([N+](=O)[O-])c3C)cc2)C(O)(C(F)(F)F)C1 (stereo not drawn)
-7%	Cn1c(SCC(=O)Nc2sc3c(c2C#N)CCC3)nnc1C1COc2ccccc2O1 (stereo not drawn)
-9%	Cc1ccc2[nH]c(=O)c(CN(CCCO)S(=O)(=O)c3c(C)ccc4nsnc34)cc2c1
-24%	CC(=O)N1CCc2ccc(C(=O)CN3CCN(c4cccc(C)c4C)CC3)cc21
32µM*	CC1(C)Cc2c(sc3nnn(Cc4ccccc4)c(=O)c23)CO1
14µM*	O=C(CSCc1c(F)cccc1Cl)NCC1CCCO1 (stereo not drawn)
-7%	O=C(O)COc1ccc(Cl)cc1CO
-20%	Cc1ccc(-n2nc(C)c(C(C)(O)C(F)(F)F)c2N)cc1 (stereo not drawn)
-14%	O=C(c1cc2ccccn2n1)N1CCCC1
-21%	Cn1c(SCc2nc(-c3ccc(Br)cc3)no2)nnc1-c1ccco1
-12%	CCOc1cc(/C=N\NC(=O)c2ccc(NC(=O)C(C)(C)C)cc2)ccc1OC(=O)c1cccc(C)c1
-9%	CCn1nnnc1SCC(=O)Nc1ccc(OCc2ccccc2)cc1
-10%	CCc1ccc(NC(=O)CCn2c(=O)oc3ccccc32)cc1
-22%	Oc1ccccc1C1=Nc2nc3ccccc3n2C(c2ccccc2)C1 (stereo not drawn)
2%	O=C(c1cccc2ccccc12)N1CCN(CC2CC=CCC2)CC1 (stereo not drawn)
-23%	CO/N=C/NC(=O)c1ccc([N+](=O)[O-])c(CS(=O)(=O)c2ccc(Cl)cc2)c1
-2%	CC(=O)Nc1ccc(S(=O)(=O)N2CCC(NC(=O)C(Cc3cccn3C)NC(C)=O)CC2)cc1 (stereo not drawn)
-8%	O=C(CCn1c2c(c3ccccc31)CCCC2)NNC(=O)c1ccc(Cl)c([N+](=O)[O-])c1
?	CCOC(=O)C1CCN(C(=O)/C=C/c2cc(OC)c(OC)c(OC)c2)CC1
-21%	O=C(O)c1ccc(NS(=O)(=O)/C=C/c2ccccc2)cc1O
-10%	O=C(CCN1C(=O)CSC1=O)Nc1ccc(Br)cc1
-26%	Nc1ccc(S(=O)(=O)c2ccc(Cl)cc2)cc1
-9%	Cc1cc(NC(=O)CCC2CCCC2)no1
?	CCCCCCN(CCCCCC)C(=O)Cc1c(-c2ccc(Cl)cc2)[nH]c2ccc(Cl)cc12
-9%	C1CCC(OCCN2CCN(CCOC3CCCCC3)CC2)CC1
-10%	O=C(O)c1ccc(NCc2nc3cc4ccccc4cc3[nH]2)cc1
-2%	COC(=O)c1c(NC(=O)CC2SC(N)=NC2=O)sc2c1CCC(C)C2 (stereo not drawn)
-25%	O=C(Oc1ccc(Br)cc1C(=S)N1CCCC1)c1ccccc1Cl
-2%	CCC(=O)NC(NCC1CCCO1)C(Cl)(Cl)Cl (stereo not drawn)

Reformatted: 5 of the compounds above
| SMILES | HPGD inh |
| --- | --- |
| O=C(CSCc1c(F)cccc1Cl)NCC1CCCO1 (stereo not drawn) | 14µM* |
| O=C(O)COc1ccc(Cl)cc1CO | -7% |
| Cc1ccc(-n2nc(C)c(C(C)(O)C(F)(F)F)c2N)cc1 (stereo not drawn) | -20% |
| O=C(c1cc2ccccn2n1)N1CCCC1 | -14% |
| Cn1c(SCc2nc(-c3ccc(Br)cc3)no2)nnc1-c1ccco1 | -21% |

Retrieved by structure from the list above:
HPGD inh	SMILES
14µM*	O=C(CSCc1c(F)cccc1Cl)NCC1CCCO1 (stereo not drawn)
-9%	C1CCC(OCCN2CCN(CCOC3CCCCC3)CC2)CC1

(more compounds)
HPGD inh	SMILES
-16%	O=C(Nc1ccccc1)c1ccc(OC(=O)c2cc3ccccc3o2)cc1
?	CCOC(=O)c1ccc2nc(NC(=O)c3cccs3)sc2c1
-2%	Cn1c(=O)c2cc(S(=O)(=O)NC(C(=O)NCc3cccnc3)c3ccccc3)ccc2n(C)c1=O (stereo not drawn)
-26%	O=C(NCc1ccco1)c1cnn2c1NC(c1ccc(Br)cc1)CC2C(F)(F)F (stereo not drawn)
-20%	Cc1ccc2c(c1)-c1c(ssc1=S)C(C)(C)N2C(=O)CSc1nncn1C
-12%	O=S(=O)(NC1CC2CCC1C2)c1ccc(Br)s1 (stereo not drawn)
-7%	CCN1CCN(C(=O)C2CC(c3ccc(F)cc3)=NO2)CC1 (stereo not drawn)
-11%	COc1ccc(OC)c(S(=O)(=O)N2CCN(C)CC2)c1
-18%	Cc1ccc(C)c(SCC(=O)Nc2nnc(-c3ccccc3)o2)c1
-18%	CCOc1ccc(C(=O)OCC(=O)Nc2cc(C)on2)cc1OCC
0%	CC(=O)N=c1sc(C(C)(C)C)c(C)n1C
-6%	Nc1c(C(=O)c2ccccc2)oc2ccccc12
1%	COc1ccccc1CN1CCC2(CC1)CCN(S(C)(=O)=O)CC2
-24%	COc1cc(C2CC(=O)c3cnc(NC(=O)COc4ccccc4)nc3C2)cc(OC)c1OC (stereo not drawn)
-7%	CN(Cc1ccccc1)S(=O)(=O)c1ccc(S(=O)(=O)N(Cc2ccc(F)cc2)C2CCCC2)cc1
-11%	CSc1cnc2c(=O)[nH]c(=O)n(C)c2n1
-20%	CCOC(=O)CNC(=O)CSc1ncnc2c1cnn2Cc1ccccc1
0%	N#CC(C#N)=Cc1cc2ccccc2nc1N1CCOCC1
-26%	N#Cc1ccc(-c2csc(NC(=O)C3CC3)n2)cc1
-7%	Cc1ccc(S(=O)(=O)N2CCOCC2)cc1C(=O)NCc1ccco1
?	COc1ccc(OC)c(C(=O)CSc2nnc(-c3cccs3)o2)c1
-9%	CCOC(=O)CC1C(=O)NCCN1Cc1cccc(OC)c1 (stereo not drawn)
?	O=C1c2c(O)cc(O)cc2O[C@@]12c1c(cc(O)c3c1O[C@H](c1ccc(O)cc1)[C@@H](O)C3)O[C@@H]2c1ccc(O)cc1
-16%	COc1ccc(NC(C)=O)cc1NC(=O)CN1CCN(C2c3ccccc3-c3ccccc32)CC1
?	CCCOc1ccc(-c2c(C(=O)N/N=C/c3ccc(OCC)cc3)nnn2-c2nonc2N)cc1
-17%	COc1ccc(C(=O)Nc2cc(C(=O)NCCc3ccccc3)ccc2Cl)cc1
-23%	N#Cc1ccc(CSc2nnc(NC(=O)CN3C(=O)C4CC=CCC4C3=O)s2)cc1 (stereo not drawn)
0%	O=C(Nc1ccccn1)N1CCOCC1
?	CC(C)NC(=S)N/N=C/c1ccc(N2CCOCC2)cc1
-8%	CC(=O)c1cnc(Nc2nc(C)c3ccccc3n2)nc1C

The listing continues:
HPGD inh	SMILES
-23%	COc1ccc(-c2cc(OC(=O)c3ccc(F)cc3)c3c(C)oc(C)c3c(=O)c2)cc1
-4%	COC(=O)c1nnn(CC(=O)NC(=O)Nc2c(C)cccc2C)c1C(=O)OC
-26%	CCCSc1oc(-c2ccco2)nc1S(=O)(=O)c1ccccc1
-6%	O=C1CN(c2ccccc2Cl)C(=O)CN1c1ccccc1Cl
-9%	Cn1c(=O)c2cc(S(=O)(=O)NC(C(=O)NCc3ccccn3)c3ccccc3)ccc2n(C)c1=O (stereo not drawn)
-18%	CCOC(=O)c1cc2sccc2n1CC(=O)OC
2.8µM*	CN1CCN(C(=O)c2ccc(COc3ccc(Cl)cc3Cl)cc2)CC1

Screening data from PubChem.
